From PubChem BioAssay
KCNQ2 enhance = potentiators of rat KCNQ2 potassium channel | B-score at 10 µM | hit rate 0.54% among 310,000 | O88943 | CHO-K1 KCNQ2, FluxOR thallium flux fluorescence; hits give high values;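 active means fluorescence ratio B-score at least 3 SD of library B-scores, with initial fluorescence B-score within 3 SD, cut at about 5.3 in these data; same plate scores as AID 2156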;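 further: B-score of peak minus minimum over baseline fluorescence ratio after K+ and Tl+ stimulus; positive B-score means potentiation of KCNQ2 with more thallium influx and brighter signal; only the inactives scoring about 0 or higher are listed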
Target sequence (O88943 whole entry, looked up): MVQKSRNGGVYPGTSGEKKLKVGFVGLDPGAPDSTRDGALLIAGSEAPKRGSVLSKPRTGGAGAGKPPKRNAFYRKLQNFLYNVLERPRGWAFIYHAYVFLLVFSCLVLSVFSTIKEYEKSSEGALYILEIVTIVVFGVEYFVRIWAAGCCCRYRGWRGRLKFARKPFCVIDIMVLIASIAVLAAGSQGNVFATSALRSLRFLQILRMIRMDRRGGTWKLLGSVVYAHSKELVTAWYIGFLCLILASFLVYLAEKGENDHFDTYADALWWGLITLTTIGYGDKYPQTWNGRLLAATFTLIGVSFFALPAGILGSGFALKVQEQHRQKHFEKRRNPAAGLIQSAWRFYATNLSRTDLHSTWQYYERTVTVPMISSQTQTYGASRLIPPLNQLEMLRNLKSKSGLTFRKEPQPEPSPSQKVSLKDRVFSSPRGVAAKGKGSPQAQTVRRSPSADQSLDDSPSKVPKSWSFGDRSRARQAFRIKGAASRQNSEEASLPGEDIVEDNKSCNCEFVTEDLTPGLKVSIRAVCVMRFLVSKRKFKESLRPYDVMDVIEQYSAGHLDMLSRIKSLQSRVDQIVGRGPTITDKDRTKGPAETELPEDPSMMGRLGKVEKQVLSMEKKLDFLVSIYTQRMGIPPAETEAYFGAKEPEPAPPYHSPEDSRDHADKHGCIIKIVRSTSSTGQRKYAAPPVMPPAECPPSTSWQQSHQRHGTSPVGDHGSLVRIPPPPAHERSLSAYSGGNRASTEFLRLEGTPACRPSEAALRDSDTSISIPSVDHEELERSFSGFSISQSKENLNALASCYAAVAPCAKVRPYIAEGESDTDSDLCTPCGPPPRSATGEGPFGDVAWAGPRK
KCNQ2 enhance baseline = second read-out of KCNQ2 enhance, no call of its own (marks repeat the call); B-score; compound at 10 µM; measured here: initial fluorescence intensity artifact check;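 brightness before thallium and not channel activity; 0 = typical well and far values either way flag optical interference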
Active calls of the source: *. The list is partial, so the mix of outcomes need not match the whole.

SMILES | KCNQ2 enhance | KCNQ2 enhance baseline
Cc1ccc([N+](=O)[O-])cc1NC(=S)NC(=O)c1c(Cl)cnn1C | 0.62 | -1.41
CC1(C)C(=O)OC(C(=O)c2ccccc2)C2(CCCCC2)C1=O (stereo not drawn) | 1.24 | -0.44
CC(=O)c1ccc(Oc2cc(C)nc(N3CCOCC3)n2)cc1 | 0.06 | -0.01
CN1CCN(C(=O)C2=C[C@@H](c3csc4ccccc34)C[C@@H](OCCCCO)O2)CC1 | 0.99 | -0.84
COc1cc(/C=C(\NC(=O)c2cc(OC)c(OC)c(OC)c2)C(=O)NC(C(=O)O)c2ccccc2)cc(OC)c1OC (stereo not drawn) | 0.04 | 0.02
COC(=O)c1ccccc1S(=O)(=O)Nc1ccc(OC)nc1 | 1.1 | 1.41
NNC(=O)C1c2ccccc2Oc2ccccc21 | 0.12 | -0.76
O=C(Cn1cnc2ccccc2c1=O)NCCC(=O)Nc1ccc(F)cc1 | 0.34 | 1.41
Cc1cc(C)cc(NC2=NC3(CCCCC3)N=C(N)N2)c1 | 0.13 | -0.73
NC(=O)c1cccc(NC(=O)Nc2ccc(Cl)cc2)c1 | 0.43 | 0.22
COc1ccccc1N1CCN(/N=C\C(Br)=C\c2ccccc2)CC1 | 1.56 | -0.01
COc1ccc(NC(=O)CC#N)cc1OC | 0.78 | 0.14
COc1ccc(-c2cc3nc(C)cc(N)n3n2)cc1 | 0.04 | -0.76
COc1ccccc1NC(=O)CCCNC(=O)Cn1cnc2sc(C)c(C)c2c1=O | 0.32 | -0.7
Nc1cc(N)nc(SCC(=O)NNC(=O)Cc2ccccc2)n1 | 0.59 | -1.19
O=C1CSC(c2ccc([N+](=O)[O-])cc2)N1Cc1ccccc1 (stereo not drawn) | 0.33 | -0.01
Cc1[nH]c2ccccc2c1C(=O)CN1CCSCC1 | 0.38 | 0.08
C=CCSc1nc(C)c(CCC(C)C)c(=O)[nH]1 | 0.58 | 0.75
CCOc1ccc(/C=N/N2C(C)CCCC2C)cc1OC (stereo not drawn) | 0.79 | -0.04
CCOC(=O)COn1c(=O)c(=O)n(O)c2ccccc21 | 0.07 | -1.1
O=C(COc1ccc2ccccc2c1)Nc1ccc2c3c(cccc13)CC2 | 0.07 | -0.02
COc1cc(C)ccc1OCc1cc(C(=O)N2CCN(C3CCCCC3)CC2)no1 | 0.32 | -2.21
CCOC(=O)C1=C(C)NC(C)=C(C(=O)OCC)C1c1ccccn1 | 1.73 | 0.75
Cc1ccc(-c2cc(C(=O)NCCc3ccc(S(N)(=O)=O)cc3)c3ccccc3n2)cc1 | 0.41 | 2.77
CN1CCCN(S(=O)(=O)c2ccc(O)c(C(=O)O)c2)CC1 | 0.02 | 1.64
O=C(NCC1OCCc2ccccc21)c1ccc(NC(=O)c2cccc(Br)c2)cc1 (stereo not drawn) | 0.4 | 0.38
NC(=O)c1ccc(N2CCCCC2)c(N2C(=O)C3CC=CCC3C2=O)c1 (stereo not drawn) | 0.41 | 1.13
CC(/C=N\NC(=O)Cn1cncn1)=C/c1ccc(C(C)C)cc1 | 2 | 0.14
COc1ccccc1OCc1ccc(C(=O)Nc2ccccc2F)cc1 | 1.06 | 0.2
O=C(C(=O)N1CCCCCC1)c1c[nH]c2ccccc12 | 0.02 | -1.2
CCOC(=O)CNC(=O)CSc1nc(-c2cccc(C)c2)ns1 | 0.46 | -0.97
CC(C)CC(NS(=O)(=O)c1cc(C(=O)O)ccc1Cl)C(=O)O (stereo not drawn) | 1.45 | 0.94
CS(=O)(=O)c1cccc(C(=O)NCc2ccccc2)c1 | 0.77 | -1.57
COc1ccc(C2=NN(C(=O)CCCC(=O)O)C(c3cccs3)C2)cc1OC (stereo not drawn) | 0.04 | -0.94
Cc1nnc2c(N3CCN(C(=O)c4ccco4)CC3)nc3ccccc3n12 | 0.08 | 0.47
Cc1nn(C(C)C(=O)O)c(=O)c2ccccc12 (stereo not drawn) | 1.11 | -0.35
O=c1[nH]c(CSc2nnc(COc3ccccc3)n2-c2ccccc2)nc2ccccc12 | 0.51 | -1.07
O=C(NCCc1c[nH]c2ccccc12)C(=O)NCC1OCCCN1S(=O)(=O)c1ccc(F)cc1 (stereo not drawn) | 1 | -0.49
Cc1ccccc1CNC(=O)CCC(=O)N1Cc2ccccc2Oc2ncccc21 | 0.09 | -1.04
Cc1nc2cc(-c3cccc(F)c3)nn2c(C)c1CCC(=O)NC(C)CCc1ccco1 (stereo not drawn) | 0.38 | -2.77
COCCNc1ncnc2c1[nH]c1ccccc12 | 2.13 | 1.62
Nc1ccc2c(c1)-c1ccccc1S(=O)(=O)N2 | 0.58 | -0.44
COc1ccc(C(=O)Nc2cccc(-c3nnc(-c4ccco4)o3)c2)cc1 | 1.34 | -1.78
Cc1c(C(=O)NCC2COc3ccccc3O2)oc2ccc(S(=O)(=O)N3CCOCC3)cc12 (stereo not drawn) | 1.32 | -0.18
O=C(Oc1cccc(C(=S)N2CCOCC2)c1)c1ccc([N+](=O)[O-])cc1 | 0.68 | -3.09
Cc1ccc(Sc2ncccc2C(=O)NCc2cc([N+](=O)[O-])ccc2O)c(C)c1 | 1.28 | -1.52
CCOc1ccc(CN2CCNC(=O)C2CC(=O)NCc2ccccn2)cc1 (stereo not drawn) | 0.01 | -0.07
COc1cc(C)c(-c2cc(C(=O)O)c(C)o2)cc1C(C)C | 1.06 | -1.01
Cc1ccc(C(=O)CSc2nc3ccc(C(=O)NCCN4CCCCC4)cc3c(=O)[nH]2)cc1 | 0.21 | 1.55
CC(C)CN1CCC(=O)N([C@H](CSc2ccc(Br)cc2)c2ccccc2)CC1 | 1.03 | 2.31
Cc1cc2oc(=O)cc(COC(=O)Cn3cnnn3)c2cc1C(C)C | 1.37 | -2.51
Cc1ccnc(SCC(=O)c2cccs2)n1 | 2.44 | 0.22
CCS(=O)(=O)N1CCN(C2CCC(c3ccccc3)CC2)CC1 (stereo not drawn) | 0.29 | 0.3
Cc1ccc(CNC(=O)C2CCCN(S(=O)(=O)c3ccc(-n4cnnn4)cc3)C2)cc1 (stereo not drawn) | 0.85 | 1.95
COc1cccc(C(=O)/C=C2\Sc3ccccc3N2C)c1 | 1.36 | 0.36
CC(C)(C)C(=O)Nc1ccc(C(=O)N/N=C/c2ccccc2OC(=O)c2ccc(Cl)cc2Cl)cc1 | 0.01 | -0.15
Cc1cccc(-n2c(Cc3cc(=O)[nH]c(=O)[nH]3)nnc2SC(C)C)c1 | 1.16 | -0.5
O=C(CN1CCC(NC(=O)c2ccco2)CC1)Nc1cccc2ccccc12 | 0.21 | -0.55
Brc1nnc2n1-c1ccccc1Sc1ccccc1-2 | 1.93 | 0.05
O=C1NCN(c2ccccc2)C12CCN(c1nnnn1-c1ccccc1)CC2 | 0.03 | -1.22

Remaining list, next part
SMILES | KCNQ2 enhance | KCNQ2 enhance baseline
O=C(CCN1C(=O)/C(=C\c2ccccc2)SC1=S)NNC(=O)c1ccncc1 | 1.78 | 0.51
Cn1c(=O)c(Sc2ccccc2)c(O)c2ccccc21 | 0.01 | 1.25
CCOC(=O)c1csc(Nc2nc3ccc(F)cc3s2)n1 | 2.41 | -0.02
CN1C(=O)OC2(C)CCc3ccccc3C12C (stereo not drawn) | 0.65 | -0.05
Cc1cccc(C)c1NC(=S)Nc1ccc(F)cc1 | 0.1 | -0.94
CCOC(=O)Cn1c(-c2cccnc2Cl)nc2cc(Cl)c(Cl)cc21 | 0.92 | 0.82
CCOc1ccc(NC(=O)[C@H](Cc2ccccc2)NC(=O)C2CCNCC2)cc1 | 0.36 | 0.42
O=C(Nc1ccccc1C(=O)O)c1cccc(NS(=O)(=O)c2ccc(Br)cc2)c1 | 0.07 | 2.78
O=C(CN1CCCCC1)N1CCCc2ccccc21 | 1.18 | -2.3
CN(C)N1C(N)=C(C#N)C(c2ccsc2)C2=C1CCCC2=O (stereo not drawn) | 0.07 | 0
Cc1ccc(/C=C2/NC(=O)N(Cc3ccccc3F)C2=O)o1 | 0.21 | -1.36
O=C(C1c2ccccc2C(=O)N2CCc3ccccc3C12)N1CCN(Cc2ccccc2)CC1 (stereo not drawn) | 0.03 | 0.7
O=C(OCC(=O)c1cccs1)c1ccccc1 | 0.49 | -0.06
CCc1cc(C(=O)c2ccccc2OC)c(N)s1 | 0.57 | -0.04
Cc1cc(-c2ccc(C)c(S(=O)(=O)NCCc3ccc(S(N)(=O)=O)cc3)c2)on1 | 0.33 | -0.45
O=C(CSc1ncnc2ccccc12)Nc1cccc(S(=O)(=O)N2CCOCC2)c1 | 0.32 | 0.25
N#Cc1c(Nc2cccc(F)c2)sc2c(O)cc(=O)[nH]c12 | 1.18 | -1.7
Cc1cnc(C(=O)Nc2nnc(C3CC3)s2)cn1 | 0.09 | -0.04
COc1ccc(OCC(O)CNC(=O)Nc2ccc(C(C)(C)C)cc2)cc1 (stereo not drawn) | 0.07 | 2.77
CCc1ccc(NC(=O)C(C)n2nc(C)c([N+](=O)[O-])c2C)cc1 (stereo not drawn) | 1.03 | 0.53
COc1cccc(NC(=S)NCc2ccccc2)c1 | 2.73 | 0.01
O=C(CSc1nc2c(cnn2-c2ccccc2)c(=O)[nH]1)N1CCCCC1 | 0.12 | 1.09
CCOC(=O)N1CCN(C(=O)CN(c2ccc(Oc3ccccc3)cc2)S(C)(=O)=O)CC1 | 1.25 | -0.71
CCC(CC)NC(=O)COC(=O)CCC(=O)c1ccc(Cl)cc1 | 1.14 | -1.66
COc1ccc2c(c1)cc1c(=O)n(CC(=O)NCCCOC(C)C)nc(C)n12 | 1.29 | 0
C=CCn1c(CCNC(=O)c2ccccc2F)nnc1SCC(=O)Nc1ccc(OC)cc1 | 0.59 | -1.02
CCCNS(=O)(=O)c1cc2c3c(c1)C(C)C(=O)N3CCC2 (stereo not drawn) | 0.11 | -1.24
O=C(CNC(=O)c1cccs1)OCC(=O)c1ccccc1Cl | 1.07 | 0.74
COc1ccc(C(c2sc3nc(C)nn3c2O)N2CCC(C(N)=O)CC2)cc1OC (stereo not drawn) | 0.07 | 1.3
CCCCn1c(=N)n(CC(=O)c2ccc(Br)s2)c2ccccc21 | 1.37 | -0.48
Cc1cc(=O)oc2cc(OCCSCCN3CCCC3)ccc12 | 0.01 | 0.2
Cn1c(-c2cccs2)[n+](C)c2ccccc21 | 1.21 | -3.68
COc1ccc(C(=O)Nc2cccc(NC(=O)c3ccc(OC)cc3OC)n2)c(OC)c1 | 1.33 | -1.12
Cc1ccc(CC(NC(=O)c2ccccc2)C(=O)NC(C)C(=O)O)cc1 (stereo not drawn) | 0.02 | -0.14
O=C(NCC1COc2ccccc2O1)c1ccc(NC(=O)c2ccco2)cc1 (stereo not drawn) | 1.62 | -0.1
O=C(c1ccco1)N1CCN(Cc2cc(=O)c(OCc3cccc(Cl)c3)co2)CC1 | 0.85 | 1.26
Cc1ccccc1NC(=S)Nc1ccccn1 | 0.3 | -0.19
COc1ccc(-c2c(C)nn3c(-c4ccccc4)cc(C)nc23)cc1 | 1.45 | -1.33
S=c1cnc2ccccc2[nH]1 | 1.24 | 0.17
CCCNC(=O)CN(c1ccccc1)S(=O)(=O)c1ccc(OC)c(OC)c1 | 0.11 | -0.97
CCOc1ccc(N2CC(NS(=O)(=O)c3cccs3)CC2=O)cc1 (stereo not drawn) | 0.65 | 0
CCCCCCC1CC(C)(/C(C)=N/NC(N)=O)OC1=O (stereo not drawn) | 1.38 | -0.3
COC(=O)c1cc(S(=O)(=O)Nc2cc(OC)cc(OC)c2)cn1C | 1.28 | -0.44
COc1ccc(S(=O)(=O)Nc2ccccc2OC)cc1C | 1.57 | -0.01
O=C(O)CCCC(=O)NCCCc1ccccc1 | 0.69 | 0.08
O=C(CNC(=O)c1ccccc1)N/N=C/c1cccs1 | 0.82 | -3.11
O=C(c1ccco1)N1CCCC(N2CCN(c3cccc(C(F)(F)F)c3)CC2)C1 (stereo not drawn) | 0.06 | -0.06
CCN(CC)CCCn1c2c(c(SCC(=O)Nc3ccc(C)c(F)c3)nc1=O)CCC2 | 0.49 | -1.71

17 structures already listed, ordered by molecular weight, descending.
SMILES | KCNQ2 enhance | KCNQ2 enhance baseline
CCN(CC)CCCn1c2c(c(SCC(=O)Nc3ccc(C)c(F)c3)nc1=O)CCC2 | 0.49 | -1.71
COc1ccc(C(=O)Nc2cccc(NC(=O)c3ccc(OC)cc3OC)n2)c(OC)c1 | 1.33 | -1.12
COc1ccc(C(c2sc3nc(C)nn3c2O)N2CCC(C(N)=O)CC2)cc1OC (stereo not drawn) | 0.07 | 1.3
O=C(c1ccco1)N1CCN(Cc2cc(=O)c(OCc3cccc(Cl)c3)co2)CC1 | 0.85 | 1.26
O=C(c1ccco1)N1CCCC(N2CCN(c3cccc(C(F)(F)F)c3)CC2)C1 (stereo not drawn) | 0.06 | -0.06
CCCCn1c(=N)n(CC(=O)c2ccc(Br)s2)c2ccccc21 | 1.37 | -0.48
O=C(NCC1COc2ccccc2O1)c1ccc(NC(=O)c2ccco2)cc1 (stereo not drawn) | 1.62 | -0.1
CCOc1ccc(N2CC(NS(=O)(=O)c3cccs3)CC2=O)cc1 (stereo not drawn) | 0.65 | 0
Cc1ccc(CC(NC(=O)c2ccccc2)C(=O)NC(C)C(=O)O)cc1 (stereo not drawn) | 0.02 | -0.14
Cc1cc(=O)oc2cc(OCCSCCN3CCCC3)ccc12 | 0.01 | 0.2
COc1ccc(-c2c(C)nn3c(-c4ccccc4)cc(C)nc23)cc1 | 1.45 | -1.33
COc1ccc(S(=O)(=O)Nc2ccccc2OC)cc1C | 1.57 | -0.01
O=C(CNC(=O)c1ccccc1)N/N=C/c1cccs1 | 0.82 | -3.11
CCCCCCC1CC(C)(/C(C)=N/NC(N)=O)OC1=O (stereo not drawn) | 1.38 | -0.3
O=C(O)CCCC(=O)NCCCc1ccccc1 | 0.69 | 0.08
Cn1c(-c2cccs2)[n+](C)c2ccccc21 | 1.21 | -3.68
S=c1cnc2ccccc2[nH]1 | 1.24 | 0.17
